Assay outcomes: PubChem, Broad Institute
HIV Env fusion – inhibitors of HIV Env-mediated cell fusion | inhibition, % at 12.3 µM | actives 1.1% (n = 360,000) | AID 651610 | HeLa-JRFL Env/CEM21 cell fusion, luciferase;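 active = mean replicate inhibition score of at least 50 and every replicate individually at or above 50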;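 also: 0% = plate neutral controls and 100% = maraviroc near 300 nM; one replicate is shown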
UUG fidelity – modulators of start codon recognition fidelity in yeast; S. cerevisiae UUG-firefly luciferase reporter, luminescence/redox ratio; activity score, % at 18.7 µM; actives 0.13% (n = 350,000); AID 602363;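 active = replicate mean at a twofold rise or more, about +100% in these data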;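 also: firefly luciferase made from a UUG start codon reports start codon fidelity; reporter light over untreated wells divided by growth signal over untreated wells; some hits fall short of that in this replicate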
An asterisk follows results filed as active; [ ] = another dose, or the depositor's remark. Some of the compounds tested (hit frequency here may not be typical).

SMILES | HIV Env fusion | UUG fidelity
CCCNC(=O)Nc1ccc2c(c1)C(=O)N(C)[C@H]1CC[C@@H](CC(=O)NCC3CCCCC3)O[C@@H]1CO2 | -1[16.7 µM] | 3
C[C@@H]1CN([C@@H](C)CO)C(=O)c2cc(NC(=O)Nc3ccc4c(c3)OCO4)ccc2O[C@@H](C)CCCCO[C@@H]1CN(C)Cc1ccccc1 | -35[16.7 µM] | 10
Cc1cccc(S(=O)(=O)N[C@@H]2CC[C@H](CCNS(=O)(=O)c3ccccc3F)O[C@@H]2CO)c1 | 14[16.7 µM] | 22
COc1ccc(NC(=O)N(C)C[C@H]2OCCCC[C@@H](C)Oc3ccc(NC(=O)Nc4c(C)noc4C)cc3C(=O)N([C@H](C)CO)C[C@H]2C)cc1 | 24[16.7 µM] | 5
CC(C)NC(=O)N(C)C[C@H]1Oc2ncc(C#Cc3ccc(F)cc3)cc2C(=O)N([C@@H](C)CO)C[C@@H]1C | 1[16.7 µM] | 8
N#C[C@H]1[C@@H](c2ccccc2)[C@@H](CO)N1S(=O)(=O)c1ccc(-c2ccccc2)cc1 | -6[16.7 µM] | 0
C[C@@H]1CN([C@H](C)CO)C(=O)c2cc(NC(=O)CCC(F)(F)F)ccc2O[C@@H](C)CCCCO[C@@H]1CN(C)C(=O)c1ccncc1 | 7[16.7 µM] | 9
CN1C(=O)c2cc(NC(=O)Nc3ccccc3Cl)ccc2OC[C@H]2O[C@H](CC(=O)O)CC[C@@H]21 | -17[16.7 µM] | 1
Cc1ccc(-c2cnc3c(c2)C(=O)N([C@H](C)CO)C[C@@H](C)[C@@H](CN(C)C(=O)c2ccccc2)O3)cc1 | -26[16.7 µM] | 6
C[C@H]1CN([C@@H](C)CO)C(=O)c2cc(NS(=O)(=O)c3ccc(Cl)cc3)ccc2O[C@H]1CN(C)C(=O)Nc1ccccc1 | -10[16.7 µM] | -2

Reformatted with each value named: 2 of the compounds above
Structure: CC(C)NC(=O)N(C)C[C@H]1Oc2ncc(C#Cc3ccc(F)cc3)cc2C(=O)N([C@@H](C)CO)C[C@@H]1C
  HIV Env fusion: 1[16.7 µM]
  UUG fidelity: 8
Structure: N#C[C@H]1[C@@H](c2ccccc2)[C@@H](CO)N1S(=O)(=O)c1ccc(-c2ccccc2)cc1
  HIV Env fusion: -6[16.7 µM]
  UUG fidelity: 0

Next section:
SMILES | HIV Env fusion | UUG fidelity
C[C@H]1CN([C@@H](C)CO)C(=O)Cc2cc(NC(=O)c3ccncc3)ccc2O[C@H]1CN(C)Cc1ccc(-c2ccccc2)cc1 | -10[16.7 µM] | -4
C[C@H]1CN([C@@H](C)CO)S(=O)(=O)c2ccc(-c3ccccc3F)cc2O[C@H]1CN(C)C(=O)C1CC1 | 12[16.7 µM] | -1
O=C(C[C@@H]1C[C@H]2c3cc(NS(=O)(=O)c4ccccc4)ccc3O[C@H]2[C@H](CO)O1)NC1CCCCC1 | 0[16.7 µM] | 16
CNC[C@@H]1Oc2ccc(NC(=O)Cc3cn(C)c4ccccc34)cc2CC(=O)N([C@@H](C)CO)C[C@@H]1C | 5[16.7 µM] | 8
COc1ccc(NC(=O)Nc2ccc3c(c2)[C@H]2C[C@H](CC(=O)N4CCOCC4)O[C@H](CO)[C@H]2O3)cc1 | 2[16.7 µM] | -2
C[C@@H]1CN([C@H](C)CO)C(=O)c2cc(NS(=O)(=O)c3ccc(Cl)cc3)ccc2O[C@@H](C)CCCCO[C@H]1CN(C)C(=O)Nc1ccc(C(F)(F)F)cc1 | 55*[16.7 µM] | 8
Cc1noc(C)c1NC(=O)N(C)C[C@@H]1Oc2ccc(N(C)C)cc2C(=O)N([C@@H](C)CO)C[C@@H]1C | 5[16.7 µM] | -3
CC(C)C#Cc1ccc2c(c1)O[C@@H](CN(C)Cc1ccccc1)[C@@H](C)CN([C@@H](C)CO)S2(=O)=O | 33[16.7 µM] | 0
Cc1noc(C)c1NC(=O)Nc1ccc2c(c1)C(=O)N([C@@H](C)CO)C[C@H](C)[C@@H](CN(C)Cc1ccncc1)OCCCC[C@@H](C)O2 | -20[16.7 µM] | -1
CO[C@H]1CN(C)C(=O)c2ccc(NC(=O)Cc3ccccc3)cc2OC[C@H](C)NC[C@H]1C | 2[16.7 µM] | 2
C[C@H](CO)N1C[C@H](C)[C@H](CN(C)S(=O)(=O)c2ccc(Cl)cc2)Oc2c(NS(=O)(=O)c3cn(C)cn3)cccc2C1=O | 15[16.7 µM] | -10
C[C@H]1CN([C@@H](C)CO)C(=O)c2cc(-c3ccc(C#N)cc3)cnc2O[C@H]1CN(C)C(=O)c1cccnc1 | -17[16.7 µM] | -6
C[C@@H](NC(=O)C[C@H]1C=C[C@@H](NC(=O)C2CCC2)[C@H](CO)O1)c1ccccc1 | 1[16.7 µM] | 10
Cc1noc(C)c1NC(=O)N(C)C[C@H]1OCCCC[C@@H](C)Oc2ccc(NS(=O)(=O)c3ccc(F)cc3)cc2C(=O)N([C@H](C)CO)C[C@H]1C | -4[16.7 µM] | -1
CCC(=O)N(C)C[C@H]1Oc2cc(C#Cc3cccnc3)ccc2S(=O)(=O)N([C@H](C)CO)C[C@@H]1C | 34[16.7 µM] | 15
C/C=C/c1ccc2c(c1)O[C@H](CN(C)C(=O)c1cccnc1)[C@H](C)CN([C@@H](C)CO)S2(=O)=O | 10[16.7 µM] | -14
C[C@H](CO)N1C[C@H](C)[C@@H](CN(C)C(=O)Nc2cccc3ccccc23)Oc2c(NS(=O)(=O)c3ccccc3)cccc2C1=O | 14[16.7 µM] | -4
Cc1noc(C)c1NC(=O)N(C)C[C@H]1OCCCC[C@@H](C)Oc2ccc(NS(=O)(=O)c3ccc(Cl)cc3)cc2C(=O)N([C@H](C)CO)C[C@H]1C | -58[16.7 µM] | 27
COCCNC(=O)C[C@@H]1C[C@@H]2c3cc(NC(=O)C4CCOCC4)ccc3O[C@@H]2[C@@H](CO)O1 | 14[16.7 µM] | 12
COC(=O)C[C@H]1C[C@@H]2c3cc(NC(=O)CC4CC4)ccc3O[C@@H]2[C@@H](CO)O1 | 9[16.7 µM] | 119*
C[C@@H]1CN([C@H](C)CO)C(=O)Cc2cc(N(C)C)ccc2O[C@H]1CN(C)C(=O)NC1CCCCC1 | -10[16.7 µM] | 10
CO[C@@H]1CN(C)C(=O)c2cc(NC(=O)Nc3ccc(Cl)cc3)ccc2OC[C@H](C)N(C)C[C@@H]1C | 4[16.7 µM] | 0
COc1ccc(S(=O)(=O)Nc2cccc3c2O[C@@H](CN(C)Cc2ccccc2)[C@@H](C)CN([C@@H](C)CO)C3=O)cc1 | -23[16.7 µM] | -19
COCC(=O)N(C)C[C@H]1Oc2cc(-c3cncnc3)ccc2S(=O)(=O)N([C@H](C)CO)C[C@@H]1C | -1[16.7 µM] | 19
O=C(C[C@H]1CC[C@H](NC(=O)c2cccnc2)[C@H](CO)O1)NCc1ccncn1 | 13[16.7 µM] | -14
COCC#Cc1ccc2c(c1)O[C@H](CN(C)C(=O)CN(C)C)[C@@H](C)CN([C@@H](C)CO)S2(=O)=O | 0[16.7 µM] | 0
O=C(C[C@H]1CC[C@@H](NC(=O)c2ccccc2)[C@@H](CO)O1)Nc1ccc(-c2ccccc2)cc1 | 6[16.7 µM] | -9
COc1ccc(NC(=O)N[C@H]2CC[C@@H](CCn3cc(-c4ccccc4F)nn3)O[C@H]2CO)cc1 | -2[16.7 µM] | 11
Cc1noc(C)c1NC(=O)N(C)C[C@H]1Oc2c(NS(=O)(=O)c3ccc(F)cc3)cccc2C(=O)N([C@@H](C)CO)C[C@@H]1C | 1[16.7 µM] | -7
COCC#Cc1cnc2c(c1)C(=O)N([C@H](C)CO)C[C@H](C)[C@@H](CN(C)C)O2 | -10[16.7 µM] | 9
O=C(N[C@@H]1CC[C@H](CC(=O)N2CCC(Cc3ccccc3)CC2)O[C@H]1CO)c1cnccn1 | 2[16.7 µM] | 2
O=C(O)C[C@@H]1C[C@@H]2c3cc(NC(=O)CC4CC4)ccc3O[C@@H]2[C@H](CO)O1 | -7[16.7 µM] | -7
C[C@H]1CN([C@@H](C)CO)C(=O)c2cc(NC(=O)Nc3ccc(F)cc3)ccc2O[C@@H]1CN(C)C(=O)Nc1ccc(F)cc1 | -7[16.7 µM] | 2
C[C@@H]1CN([C@@H](C)CO)C(=O)c2cc(NC(=O)CCC(F)(F)F)ccc2O[C@@H](C)CCCCO[C@@H]1CN(C)C(=O)NC1CCCCC1 | -6[16.7 µM] | -4
C[C@H]1CN([C@@H](C)CO)C(=O)Cc2cc(NC(=O)Cc3ccccc3)ccc2O[C@@H]1CN(C)Cc1ccc(C(=O)O)cc1 | 0[16.7 µM] | -5
CC(C)CC#Cc1ccc2c(c1)O[C@@H](CN(C)C(=O)Cc1cccnc1)[C@@H](C)CN([C@@H](C)CO)S2(=O)=O | -4[16.7 µM] | -8
C[C@@H]1CN([C@H](C)CO)S(=O)(=O)c2ccc(C#CCN(C)C)cc2O[C@H]1CN(C)C(=O)C1CC1 | 44[16.7 µM] | 38
C[C@H](CO)N1C[C@H](C)[C@H](CN(C)Cc2ccc(C(=O)Nc3ccccc3N)cc2)Oc2ccc(NS(=O)(=O)c3cccs3)cc2CC1=O | -86[16.7 µM] | -3
CO[C@@H]1CN(C)C(=O)c2ccc(NC(C)=O)cc2OC[C@H](C)N(C(=O)c2ccc(F)cc2)C[C@H]1C | -6[16.7 µM] | -10
C[C@H](CO)N1C[C@H](C)[C@H](CN(C)S(C)(=O)=O)Oc2ccc(NS(=O)(=O)c3ccc(F)cc3)cc2C1=O | -13[16.7 µM] | 6
CO[C@@H]1CN(C)C(=O)c2ccc(NC(=O)Cc3ccccc3)cc2OC[C@H](C)NC[C@H]1C | 16[16.7 µM] | -4
CC(=O)c1ccc(Cc2ccc(C(C)=O)s2)s1 | -18 | 1
COc1ccc(NC(=O)N(C)C[C@@H]2OCCCC[C@H](C)Oc3ccc(NC(=O)Nc4c(C)noc4C)cc3C(=O)N([C@@H](C)CO)C[C@@H]2C)cc1 | -7[16.7 µM] | -3
C[C@@H]1CN([C@@H](C)CO)C(=O)c2cc(-c3cccnc3)cnc2O[C@H]1CN(C)C(=O)NC1CCCC1 | -3[16.7 µM] | -7
O=C(C[C@H]1CC[C@H](NC(=O)c2ccccc2)[C@@H](CO)O1)Nc1ccc(-c2ccccc2)cc1 | 4[16.7 µM] | -15
COc1ccc(NC(=O)N(C)C[C@@H]2Oc3ccc(NS(=O)(=O)c4c(C)noc4C)cc3CC(=O)N([C@@H](C)CO)C[C@@H]2C)cc1 | -35[16.7 µM] | 33
COc1ccccc1/C=C/C=O | 5[16.7 µM] | -3
C[C@H]1CN([C@@H](C)CO)C(=O)c2cc(C#CCN(C)C)cnc2O[C@H]1CN(C)C | -7[16.7 µM] | 7
C[C@@H]1CN([C@@H](C)CO)C(=O)c2cc(NS(=O)(=O)c3ccc(F)cc3)ccc2O[C@@H](C)CCCCO[C@@H]1CN(C)C(=O)CCCN(C)C | 17[16.7 µM] | 14
Cc1noc(C)c1S(=O)(=O)Nc1ccc2c(c1)C(=O)N([C@@H](C)CO)C[C@H](C)[C@@H](CN(C)S(=O)(=O)c1ccccc1)OCCCC[C@@H](C)O2 | -53[16.7 µM] | 16

Continuation.
SMILES | HIV Env fusion | UUG fidelity
CN1CCN(C(=O)C[C@H]2CC[C@@H]3[C@@H](COc4ccc(NC(=O)c5ccc(F)c(F)c5)cc4C(=O)N3C)O2)CC1 | -8[16.7 µM] | -3
CC(C)c1cn(CC[C@H]2CC[C@H](N)[C@@H](CO)O2)nn1 | -5[16.7 µM] | 134*
CCCNC(=O)C[C@@H]1CC[C@H]2[C@H](COc3ccc(NC(=O)c4cccc(F)c4)cc3C(=O)N2C)O1 | 10[16.7 µM] | -1
C[C@@H](NC(=O)C[C@@H]1C=C[C@H](NC(=O)C2CC2)[C@@H](CO)O1)c1ccccc1 | 9[16.7 µM] | -3
CN(C)CCCNC(=O)C[C@H]1C=C[C@@H](NS(=O)(=O)c2ccccc2)[C@@H](CO)O1 | 12[16.7 µM] | 8
COc1ccc(NC(=O)N(C)C[C@H]2Oc3ccc(NC(=O)Cc4cn(C)c5ccccc45)cc3CC(=O)N([C@@H](C)CO)C[C@@H]2C)cc1 | 4[16.7 µM] | 6
C[C@@H]1CN([C@H](C)CO)C(=O)Cc2cc(NS(=O)(=O)c3cccs3)ccc2O[C@H]1CN(C)Cc1ccc(C(=O)O)cc1 | 1[16.7 µM] | -9

Structures from the list above that have two or more sulfur atoms:
SMILES | HIV Env fusion | UUG fidelity
Cc1cccc(S(=O)(=O)N[C@@H]2CC[C@H](CCNS(=O)(=O)c3ccccc3F)O[C@@H]2CO)c1 | 14[16.7 µM] | 22
C[C@H](CO)N1C[C@H](C)[C@H](CN(C)S(=O)(=O)c2ccc(Cl)cc2)Oc2c(NS(=O)(=O)c3cn(C)cn3)cccc2C1=O | 15[16.7 µM] | -10
C[C@H](CO)N1C[C@H](C)[C@H](CN(C)Cc2ccc(C(=O)Nc3ccccc3N)cc2)Oc2ccc(NS(=O)(=O)c3cccs3)cc2CC1=O | -86[16.7 µM] | -3
C[C@H](CO)N1C[C@H](C)[C@H](CN(C)S(C)(=O)=O)Oc2ccc(NS(=O)(=O)c3ccc(F)cc3)cc2C1=O | -13[16.7 µM] | 6
CC(=O)c1ccc(Cc2ccc(C(C)=O)s2)s1 | -18 | 1
Cc1noc(C)c1S(=O)(=O)Nc1ccc2c(c1)C(=O)N([C@@H](C)CO)C[C@H](C)[C@@H](CN(C)S(=O)(=O)c1ccccc1)OCCCC[C@@H](C)O2 | -53[16.7 µM] | 16
C[C@@H]1CN([C@H](C)CO)C(=O)Cc2cc(NS(=O)(=O)c3cccs3)ccc2O[C@H]1CN(C)Cc1ccc(C(=O)O)cc1 | 1[16.7 µM] | -9
